B2AR ag: beta2AR agonists driving receptor internalization, primary screen, cell-based, FAP fluorogen, flow cytometry | 340,000 compounds, 0.43% hits | response, % (no concentration beside the values) | AID 504454, 2011 | Am2.2-beta2AR cells; reference of the scale not given here | Beta-2 adrenergic receptor (Homo sapiens), P07550;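 active = response above a set limit, near 3 SD of response in nonfluorescent compounds, cut at about 42% in these data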;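 also: stock transfer was 100 nL into about 11 µL; a reference agonist was the positive control; negative values mostly stem from fluorescent compounds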
Target sequence (P07550 whole entry, looked up): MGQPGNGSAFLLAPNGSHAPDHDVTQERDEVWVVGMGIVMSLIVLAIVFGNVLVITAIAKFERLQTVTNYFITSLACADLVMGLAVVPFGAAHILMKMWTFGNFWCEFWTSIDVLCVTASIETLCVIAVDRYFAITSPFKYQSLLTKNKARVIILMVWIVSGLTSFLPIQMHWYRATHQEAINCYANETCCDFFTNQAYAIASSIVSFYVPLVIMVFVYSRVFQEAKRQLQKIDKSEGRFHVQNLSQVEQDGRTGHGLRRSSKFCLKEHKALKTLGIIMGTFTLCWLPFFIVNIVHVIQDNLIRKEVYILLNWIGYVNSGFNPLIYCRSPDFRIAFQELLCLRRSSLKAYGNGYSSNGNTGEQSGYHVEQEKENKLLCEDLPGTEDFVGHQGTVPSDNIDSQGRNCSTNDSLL
ALR H2O2 inh: inhibitors of human ALR sulfhydryl oxidase, primary screen, biochemical, H2O2 detection, HRP-luminol luminescence, single point | FAD-linked sulfhydryl oxidase ALR (Homo sapiens), P55789 | purified ALR, DTT oxidation | inhibition, % (test concentration not listed) | 290,000 compounds, 3.8% hits | AID 485317, 2010;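 active = mean and each replicate at 75% or more; inconclusive = only one of the two met; inactive = neither met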;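 also: stock transfer was 7.5 nL into about 7.5 µL; 0% = neutral wells and 100% = wells with inactivated enzyme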
Target sequence (P55789 whole entry, looked up): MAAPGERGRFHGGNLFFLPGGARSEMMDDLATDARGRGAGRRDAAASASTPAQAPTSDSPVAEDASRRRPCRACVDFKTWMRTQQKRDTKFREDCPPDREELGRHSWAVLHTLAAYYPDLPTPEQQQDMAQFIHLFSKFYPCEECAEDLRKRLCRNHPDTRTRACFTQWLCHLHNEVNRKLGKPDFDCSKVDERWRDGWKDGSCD
Calb FLC: C. albicans growth inhibition with fluconazole, primary screen, CaCi-2 strain, Alamar Blue fluorescence. 300,000 compounds, 0.57% hits. growth inhibition, % (test concentration not listed). AID 1979, 2009. C. albicans CaCi-2 (fluconazole-resistant clinical isolate) + fluconazole, 48 h;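 active = most replicates above 75%; inconclusive = exactly half above 75%; inactive = most below 75%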;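 also: all wells also contain fluconazole at 8 µg/ml as a sub-toxic cotreatment; 0% = median of DMSO wells and 100% = median of geldanamycin control wells; wells of about 8 µL received 7.5 nL stock; the first replicate is given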
rRNA inh HTS: reduced GFP signal of wild-type E. coli, primary screen, bacterial rRNA inhibitor project, GFP/RFP fluorescence, OD600, single point; AID 720706, 2013; GFP signal change (wild-type ribosome), % (concentration not given with the values); E. coli WT GFP vs humanized-ribosome RFP mutants, 24 h; active compounds read low; DMSO median 0, no signal -100; 350,000 compounds, 1.6% hits;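 active = significant combined selectivity score with lowered wild-type GFP, culture density cut under 30%, mutant RFP and density less affected; inactive = any of these conditions unmet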; also: one replicate is shown; some compounds called inactive have numbers as strong as hits
Beta cell apopt: inhibitors of cytokine-induced beta cell apoptosis, primary screen, luminescence; INS-1E cytokine-induced death, ATP luminescence, 48 h; percent of positive-control rescue, neutral wells zero; protection from apoptosis, % (no concentration beside the values); 300,000 compounds, 0.8% hits; AID 435005, 2010;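 active = all replicates at 75% or more, or half of them and the mean; inconclusive = half reach 75% but not the mean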;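 also: 0% = cytokine-treated negative control wells and 100% = positive control rescue; higher means more ATP so stronger rescue from cytokine killing; wells of about 40 µL received 100 nL stock; the first replicate is given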
LANA-H2B inh: blockers of LANA interaction with H2A/H2B – biochemical, FP readout, HTS, primary screen. Protein LANA1 (Human herpesvirus 8 type P (isolate GK18)), Q9QR71. cell-free LANA-H2A/H2B peptide, fluorescence polarization. inhibition, % (concentration not given with the values). 320,000 compounds, 0.6% hits; in the data active = inhibition mostly above about 10%, no sharp cut-off; inactive = mostly below about 6.7%;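 also: stock transfer was 7.5 nL into about 10 µL; 0% = median of vehicle wells and 100% = median of positive control wells; one replicate is shown; the record names a cut of 25% in any replicate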
Bfl-1 A1 inh: caspase 3/7 activation in MEF A1-2A-BIM cells, primary screen, A1 inhibitor project, cell-based, luminescence, HTS; Caspase-Glo 3/7 luminescence, 3 h; percent of clofoctol response, vehicle zero; caspase activation, % (concentration not given with the values); 330,000 compounds, 0.066% hits;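 active = over half of replicate activation scores above 10%, or exactly half above 10 with the replicate mean above 10; inconclusive = replicate mean below 10 yet half the replicates above 10; inactive = over half of replicates below 10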;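 also: wells of about 30 µL received 50 nL stock; many hits fall short of the cut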
T cruzi repl: inhibitors of intracellular T. cruzi growth, primary screen, luminescence, NIH3T3 host cells; 300,000 compounds, 1.4% hits; T. cruzi beta-gal in NIH3T3, 90 h; AID 1885, 2009; inhibition, % (concentration not given with the values);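 active = mean inhibition across valid replicates above about 55%, limit read from the data; inconclusive = mean below that limit but half or more replicates reach it; inactive = mean below it, under half of replicates reach it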;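 also: signal also drops with host cell toxicity which is not excluded here; 0% = plate median of DMSO wells and 100% = zero luminescence signal; higher percent means less beta-gal luminescence so fewer parasites; stock transfer was 50 nL into about 50 µL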
rRNA inh HTS OD600: recorded beside rRNA inh HTS, whose call it bears; OD600 change, %; measured here: OD600 growth;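 optical density of the mix in the first replicate; 0 = DMSO median and -100 = no signal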
rRNA inh HTS RFP: further read-out of rRNA inh HTS, marked with its call; RFP signal change, %; measured here: RFP humanized mutant strains;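 first replicate; 0 = DMSO median and -100 = no signal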
* hit, by the source's call; u = inconclusive; x = no result given. Not all compounds are listed; rates above refer to the full screens.

SMILES	B2AR ag	ALR H2O2 inh	Calb FLC	rRNA inh HTS	rRNA inh HTS OD600	rRNA inh HTS RFP	Beta cell apopt	LANA-H2B inh	Bfl-1 A1 inh	T cruzi repl
COc1cc(C(=O)N[C@H](C(=O)NC2CCCCCC2)C(C)C)cc(OC)c1OC	-4	-6	3	x	x	x	-3	0.3	3.3	-10
CCN(CC)S(=O)(=O)c1ccc(N2CCOCC2)c(NS(=O)(=O)c2ccc(C)cc2)c1	-7	x	-15	-2	-3	4.0	1	2.7	-1.6	-1
O=C(CCn1c(=O)oc2ccccc21)NCc1ccc2c(c1)OCO2	6	9	-4	0	13	-1.8	-7	-0.3	-0.7	-10
Cn1c(=O)n(C)c2cc([N+](=O)[O-])c(N3CCN(S(=O)(=O)c4ccccc4)CC3)cc21	1	-2	-7	-4	-1	3.0	4	-6.5	-0.5	-8
O=C(CN1CCOc2ccccc21)NCc1cccs1	5	99*	-13	x	x	x	-1	1.5	-0.8	-10
COc1ccc(-c2cc(C(=O)NNC3=NCCC3)c3c(C)nn(-c4ccccc4)c3n2)cc1	6	-5	-7	8	1	3.2	41	-1.5	-0.9	1
Cc1cccc(N=Cc2[nH]c3ccc(Br)c(Cl)c3c2O)c1	-196	x	x	x	x	x	-14	-5.7	-0.1	x
CCn1c(SCC(=O)NNC(=O)c2ccc(C)cc2)nnc1C(C)C	4	3	5	3	8	1.4	-1	-0.8	0.3	-4
Cc1noc(C)c1S(=O)(=O)Nc1ccc(C#N)cc1	-2	-8	21	0	4	0.3	5	-4.8	0.1	-2
O=C(O)C1CCC(CNS(=O)(=O)c2ccc(Br)cc2)CC1 (stereo not drawn)	7	1	6	7	1	-1.3	-5	4.6	0.4	-2
CCc1ccc(NS(=O)(=O)c2cccc3nonc23)cc1	5	9	-8	-12	-16	-3.0	6	-1.2	1.3	-6
CC(C)OP(=O)(c1ccc(N(C)C)cc1)C(O)c1ccc(C(C)C)cc1 (stereo not drawn)	1	-7	4	-2	-5	1.0	8	-1.0	0.2	11
COc1cccc(C(=O)OCC(=O)NCCC2=CCCCC2)c1	-5	x	x	-22	-38	-10	-3	3.9	0.0	x
O=C(NN1CCN(Cc2ccccc2Cl)CC1)c1ccc(Cl)cc1	10	-1	-15	x	x	x	0	2.8	0.7	-8
CN1C(=O)c2ccccc2OC1(C)Cc1ccccc1 (stereo not drawn)	6	-16	-4	-21*	-2.3*	4.2*	x	6.3	0.1	11
O=C(CCC(=O)c1cccs1)NCc1ccc(F)cc1	2	-5	19	x	x	x	-3	4.9	0.8	-17
O=C(COc1ccccc1[N+](=O)[O-])N1CCCc2ccccc21	-2	-6	9	-10	4	14	-3	-3.8	-0.7	1
O=C(COc1ccc(/C=N/NC(=O)c2ccncc2)cc1)Nc1ccc([N+](=O)[O-])cc1	12	-7	27	2	17	-1.4	-1	4.1	1.0	-8
O=C(NN1C(=O)CSC1=S)c1cccnc1	1	23	-7	22	5	11	-3	0.2	0.0	-19
O=C(CSc1nc(-c2ccccc2)cc(=O)[nH]1)Nc1ccc(Br)cc1	1	-4	7	-8	-2	-2.1	-3	-0.3	-0.7	5
COc1ccc(CC2C(=O)OC(C)(C)OC2=O)cc1	11	-3	-1	x	x	x	-5	-0.3	-1.0	x
Cc1c(C#N)c2ncnc(N)c2n1-c1ccccc1	10	1	x	x	x	x	x	-3.3	-0.1	x
O=C(/C=N/O)Nc1cccnc1	0	-4	2	x	x	x	-4	-0.1	0.2	4
CC1(C(=O)NC(=S)N(CCC#N)c2ccccc2)CC1(Cl)Cl (stereo not drawn)	2	x	-1	x	x	x	-3	4.5	-0.6	3
CN(C)c1ccc(N/C=C/C(=O)c2ccc(F)cc2)cc1	4	34	5	x	x	x	10	5.7	-10	60*
CN(C)c1cccc(NC(=O)C2(C)CC2(Cl)Cl)c1 (stereo not drawn)	11	x	-11	x	x	x	4	x	-0.2	6
COC(=O)CSc1nc(C)cc(C)c1C#N	0	-1	-10	-3	-4	0.4	-1	0.6	0.5	-13
Clc1c(-c2ccccc2)nnn1-c1ccccc1	2	-13	-26	3	3	-1.9	6	-0.7	-6.1	1
C/C(=N\NC(=O)c1nnn(-c2nonc2N)c1-c1ccc2c(c1)OCO2)c1ccccc1	0	2	-1	8	7	1.5	-2	10	0.2	-17
O=C(Nc1ccccc1C(=O)O)c1cc(S(=O)(=O)Nc2ccccc2)ccc1Cl	-1	10	6	-12	-1	2.6	-1	2.8	-0.2	30
COc1ccc(/C=N\NC(=O)c2ccc(F)cc2)cc1COc1ccccc1C(N)=O	-6	73	-2	-5	-6	1.0	1	3.9	0.0	-14
COc1ccccc1CNC(=O)[C@H](C)NC(=O)C1CCN(C(=O)[C@@H](N)Cc2ccccc2)CC1	4	-2	1	10	2	-8.9	-3	-1.6	0.6	-2
CCOC(=O)c1cnc2cc(-c3ccc(C)cc3)nn2c1-c1ccccc1	-13	-24	-22	x	x	x	11	4.3	0.5	27
Cc1cc(C(F)(F)F)nn1Cc1n[nH]c(=S)n1Cc1ccccc1	3	82*	0	x	x	x	6	0.1	-0.4	-8
N/C(COc1ccccc1)=N\NC(=O)c1cccnc1Oc1ccccc1	-8	-5	-4	x	x	x	-7	1.2	0.7	-8
OC(COc1cc(Cl)c(Cl)cc1Cl)CN1CCN(c2ncccn2)CC1 (stereo not drawn)	-8	0	4	x	x	x	-4	0.6	0.2	-25
CCOc1ccc(C(=O)n2cnnc2N)cc1	1	x	-5	2	9	-8.0	-2	-8.1	-0.3	-4
Cc1cc(C)cc(N(C(=O)Cn2nnc3ccccc32)C(C(=O)NCc2ccco2)c2ccncc2)c1 (stereo not drawn)	-3	-2	-9	x	x	x	x	-0.4	-0.6	-3
COc1ccccc1C(=O)NCCc1nc2ccccc2n1C	-3	-1	2	x	x	x	-2	1.2	0.1	-5
O=C(Nc1ccnn1C1CCN(C(=O)CCc2ccc(F)cc2)CC1)C1CCOC1 (stereo not drawn)	1	-14	-3	5	9	-0.5	-7	3.0	-0.1	3
Cc1ccc(N2C(=O)c3ccccc3C2C(=O)c2ccc(O)cc2O)cc1 (stereo not drawn)	-1	-58	16	-39	-41	-8.7	9	-1.7	-0.3	7
Cc1ccc(C)c(S(=O)(=O)N2CCCOC2CNC(=O)C(=O)NCc2ccncc2)c1 (stereo not drawn)	-8	-20	5	2	5	-0.2	-10	1.4	1.1	-20
CCOC(=O)CC1C(=O)NCCN1S(=O)(=O)c1ccccc1 (stereo not drawn)	8	-6	4	5	2	-1.4	-9	-1.8	0.9	-22
COC(=O)c1ccc(CNC(=O)c2ccc3c(c2)NC(=O)CS3)cc1	4	3	x	x	x	x	0	3.3	1.1	x
COc1ccc(C(=O)NCCS(=O)(=O)N2CCc3ccccc3C2)cc1OC	-4	2	-1	1	1	-1.3	-1	1.1	1.2	-8
COc1cccc(CCNC(=O)c2cc(COc3c(F)cccc3F)on2)c1	-11	5	26	-5	-22	-5.5	-5	0.7	-0.8	-12
O=C(N/N=C\c1ccc(F)cc1)c1ccc(F)cc1	2	0	-15	6	21	-0.6	-1	-3.4	-1.1	1
NS(=O)(=O)c1ccc(CCNC(=O)C2CCCCC2)cc1	-7	-4	u	x	x	x	-9	2.0	0.8	7
CCOc1ccc(NC(=O)CCN2CCN(C)CC2)cc1	2	-24	6	6	7	-1.6	-7	-0.8	0.7	3
CCOc1ccc(N2C(=O)CC(N3CCOCC3)C2=O)cc1 (stereo not drawn)	3	2	-15	x	x	x	-7	4.6	0.2	-6
Cc1ccc(S(=O)(=O)NN=Cc2ccc(N3CCOCC3)cc2)cc1[N+](=O)[O-]	-9	43	x	8	9	-3.7	-3	-3.7	2.0	x
COc1cc2[nH]c(=O)c(C(=O)NCCCN3CCCCC3)c(O)c2cc1OC	-6	-1	x	x	x	x	1	-0.5	-0.2	14
COc1ccc(NC(=O)c2ccc(C#N)cc2)cc1NS(=O)(=O)c1ccc(F)cc1	-5	-9	22	x	x	x	9	1.7	-0.2	0
CC(CCc1ccccc1)NC(=O)c1ccc(-n2cncn2)c([N+](=O)[O-])c1 (stereo not drawn)	-8	-12	5	6	10	0.7	-4	-17	0.5	0
CCCNC(=O)C(Cc1ccccc1)NS(=O)(=O)c1ccc2c(c1)CCC(=O)N2 (stereo not drawn)	1	84*	8	5	0	0.0	x	0.8	2.0	6
CC1(C)CC(=O)c2cn3nc(C(F)(F)F)nc3nc2C1	2	4	-12	x	x	x	-7	-11	0.3	-1
O=C(CCN1C(=O)/C(=C/c2ccccc2Cl)SC1=S)NNC(=O)c1ccccc1O	15	x	0	2	7	6.1	0	0.4	0.0	5
CCCCCC(=O)Nc1ncc2c(n1)CC(c1cccs1)CC2=O (stereo not drawn)	-7	-6	36	-5	2	-1.4	-3	-0.1	0.1	x
COc1ccc(OCC(=O)N/N=C(\C)CC(=O)Nc2ccc(OC)cc2[N+](=O)[O-])cc1	-2	-12	-20	6	12	-4.9	-1	-2.1	-0.1	-2
CN1CCC(N(C)C(=S)NC(=O)c2cc(-c3cccc(Br)c3)nc3ccccc23)CC1	0	7	41	-2	6	1.7	13	1.2	0.0	17

A portion from further up, as a working copy:
SMILES	B2AR ag	ALR H2O2 inh	Calb FLC	rRNA inh HTS	rRNA inh HTS OD600	rRNA inh HTS RFP	Beta cell apopt	LANA-H2B inh	Bfl-1 A1 inh	T cruzi repl
COc1ccc(OCC(=O)N/N=C(\C)CC(=O)Nc2ccc(OC)cc2[N+](=O)[O-])cc1	-2	-12	-20	6	12	-4.9	-1	-2.1	-0.1	-2
CN1CCC(N(C)C(=S)NC(=O)c2cc(-c3cccc(Br)c3)nc3ccccc23)CC1	0	7	41	-2	6	1.7	13	1.2	0.0	17

Next results:
SMILES	B2AR ag	ALR H2O2 inh	Calb FLC	rRNA inh HTS	rRNA inh HTS OD600	rRNA inh HTS RFP	Beta cell apopt	LANA-H2B inh	Bfl-1 A1 inh	T cruzi repl
COc1ccc(S(N)(=O)=O)cc1C(=O)NC1CCCc2ccccc21 (stereo not drawn)	3	-3	10	9	7	-2.7	-7	0.0	0.6	10
Cc1ccc(S(=O)(=O)c2nc(-c3ccco3)oc2SCC(=O)NCC2CCCO2)cc1 (stereo not drawn)	7	-23	-5	x	x	x	-4	1.3	-0.8	9
Cc1ccc(OCC(=O)N2CCN(C(=O)c3cccnc3)CC2)cc1	1	-8	0	x	x	x	-8	-4.7	0.4	-3
Cc1c(Cl)cnc(NC(=O)COC(=O)CCc2nc3ccccc3s2)c1Cl	-6	-17	3	18	24	6.9	-8	-0.8	-0.5	-12
CCOc1cc(C(=O)Nc2ccc([N+](=O)[O-])cn2)cc(OCC)c1OCC	-4	-6	-4	8	11	-0.1	3	1.1	1.0	19

High-throughput results from PubChem BioAssay.
